Compound activity (PubChem BioAssay)
CSC inhib: cancer stem cell inhibition. 1.1% of 300,000 active. inhibition, % at 7.5 µM. cancer stem cell-like cells viability, luminescence;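 active means mean at 75% or more and at least half the replicates too; inconclusive means mean and replicates disagree; tested in HMLE shEcad cells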;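 further: 0% = median of negative and 100% = median of positive control wells; the first replicate is given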
Yeast UUG start: modulators of start codon recognition fidelity in yeast | AID 602363 | 0.13% of 350,000 active | activity score, % at 18.7 µM | S. cerevisiae UUG-firefly luciferase reporter, luminescence/redox ratio;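 active means replicate mean at a twofold rise or more, about +100% in these data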;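 further: firefly luciferase made from a UUG start codon reports start codon fidelity; reporter light over untreated wells divided by growth signal over untreated wells; some hits fall short of that in this replicate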
MT1-MMP act inh: inhibitors of human MT1-MMP activation. P50281. HT1080 RFP-PRO-GFP cells, GFP/RFP ratio fluorescence, overnight; percent of plate control window, DMSO zero. GFP/RFP ratio change, % at 20 µM. 0.061% of 360,000 active. AID 651647;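 active means GFP/RFP ratio change of at least 30% with cell ATP level not reduced by more than half and red fluorescence within 50% of control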; further: strong numbers were not always called active
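Test system: HT1080 RFP-PRO-GFP cells; Benchmarks: DMSO and RFP-L50D-GFP cell wells; Timing: cells overnight before dosing, compound overnight, 37 °C, 5% CO2; Compound: one 20 µM compound dose with 1% DMSO; Read-out: GFP/RFP fluorescence ratio.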
Env fusion inh: blocks HIV Env-driven cell-cell fusion; HeLa-JRFL Env/CEM21 cell fusion, luciferase; inhibition, % at 12.3 µM; 1.1% of 360,000 active; AID 651610;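 active means mean replicate inhibition score of at least 50 and every replicate individually at or above 50; inconclusive means only one of the two criteria met; inactive means mean below 50 and not all replicates reaching 50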;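 further: 0% = plate neutral controls and 100% = maraviroc near 300 nM; one replicate is shown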
eIF4H inh: inhibitors of RNA binding by human eIF4H. inhibition, % at 35 µM. eIF4H fluorescence polarization binding assay. Q15056. 0.94% of 290,000 active;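 active means 50% or more with normal probe brightness, or confirmed in later tests; inconclusive means above 50% with abnormal brightness, or retests that disagree; inactive means below 50% or failed in later tests; about a fifth of its hits are not listed in these tables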;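 further: calls also rest on retests at 20 µM and on dose response follow-up; 0% = protein and probe with vehicle and 100% = probe without protein; strong numbers were not always called active; many hits fall short of the cut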
Rce1 inh: yeast Ras-converting enzyme inhibition. Q03530. yeast membranes, quenched prenylated peptide cleavage fluorescence. 0.27% of 290,000 active. calls only;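 active means fall in fluorescence gain of 50% or more versus controls, with final raw signal at or below 3038400; inconclusive means same 50% fall but final raw signal above 3038400; inactive means fall in fluorescence gain under 50%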;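 further: plate controls were neutral control wells for no effect and wells lacking membranes for full effect; tested at 10 µM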
PABP FP inh: PABP-poly(A) binding inhibition. 1% of 290,000 active. PABP-poly(A) RNA binding, fluorescence polarization. P11940. inhibition, % at 35 µM;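 active means 50% or more with normal probe brightness, or confirmed in later tests; inconclusive means above 50% with abnormal brightness, or retests that disagree; inactive means below 50% or failed in later tests; about a fifth of its hits are not listed in these tables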;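 further: calls also rest on retests at 20 µM and on dose response follow-up; controls were probe without protein and protein plus probe with vehicle; some compounds called inactive have numbers as strong as hits; many hits fall short of the cut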
Target sequence (P11940 whole entry, looked up): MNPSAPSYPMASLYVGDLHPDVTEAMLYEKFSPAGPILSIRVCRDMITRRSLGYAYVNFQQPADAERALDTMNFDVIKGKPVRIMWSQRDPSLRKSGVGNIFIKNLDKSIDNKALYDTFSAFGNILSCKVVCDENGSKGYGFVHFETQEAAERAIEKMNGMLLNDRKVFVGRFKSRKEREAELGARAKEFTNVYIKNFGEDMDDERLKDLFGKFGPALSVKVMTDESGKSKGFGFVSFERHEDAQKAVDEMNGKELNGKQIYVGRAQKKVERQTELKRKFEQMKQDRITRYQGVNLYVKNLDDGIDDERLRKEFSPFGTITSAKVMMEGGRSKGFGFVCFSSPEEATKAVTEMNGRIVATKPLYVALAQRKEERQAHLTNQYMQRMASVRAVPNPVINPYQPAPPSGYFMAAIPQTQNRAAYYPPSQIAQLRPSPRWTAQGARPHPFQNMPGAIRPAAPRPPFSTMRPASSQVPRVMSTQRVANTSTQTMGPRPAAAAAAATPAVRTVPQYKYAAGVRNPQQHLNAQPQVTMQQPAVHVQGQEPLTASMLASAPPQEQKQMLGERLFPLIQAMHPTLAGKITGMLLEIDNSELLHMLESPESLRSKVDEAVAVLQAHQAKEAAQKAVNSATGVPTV
eIF4H inh retest: also measured in eIF4H inh; calls as there; inhibition, %; compound at 20 µM; confirmation average;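 mean of two retest wells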
PABP FP inh retest: second read-out of PABP FP inh, no call of its own (marks repeat the call); inhibition, %; compound at 20 µM; confirmation repeats;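 mean of two retest wells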
MT1-MMP act inh RFP: also measured in MT1-MMP act inh; calls as there; RFP signal change, %; measured here: RFP expression control read;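 0 = vehicle wells; hits needed this value within 50% of zero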
Active calls of the source: *; i = inactive; ? = inconclusive; . = no result given. These rows are one share of the data; the hit share may differ from the screen's.

SMILES	CSC inhib	Yeast UUG start	MT1-MMP act inh	MT1-MMP act inh RFP	Env fusion inh	eIF4H inh	Rce1 inh	PABP FP inh	others
Cc1nn(CC(=O)Nc2ccc(Cl)c(S(=O)(=O)N(C)C)c2)c(C)c1[N+](=O)[O-]	-2	.	2	1	18	-5	i	4
Cc1cccc(C2CN(C)CCc3c2cc(O)c(O)c3Cl)c1 (centres undefined)	40	-19	-11	-6	20	.	.	.
Cc1cc(C)c2cc(C(=O)N3CCC(Cc4ccccc4)CC3)[nH]c2c1	33	-3	4	1	15	-9	i	-17
CCC1CCCCN1C(=O)COC(=O)COc1ccc(Br)cc1 (centres undefined)	3	-27	5	-2	.	.	.	.
COc1ccccc1C(=O)OCC(=O)NC(C)CCc1ccccc1 (centres undefined)	-7	-16	4	3	5	3	i	5
Cc1nc2ccccc2nc1Nc1cccc(Cl)c1	37	-9	2	-1	2	-1	i	6
C=CCn1c(SCC(=O)c2cccs2)nc2sc(C)cc2c1=O	10	-6	-3	-6	-20	-2	i	1
C=CCN1C(=O)c2ccccc2Sc2ccc(C(=O)NCC(OC)OC)cc21	-4	4	2	4	8	2	i	4
O=C(Cc1ccc(Cl)cc1)NNC(=O)C1CC=CCC1C(=O)O (centres undefined)	-17	-15	2	4	-10	-4	.	-10
C/C(CC(=O)Nc1ccc(C)c(Cl)c1)=N\NC(=O)Cc1cnc(N)s1	-5	.	3	-1	-3	-2	i	-8
S=C(NCC(c1ccco1)N1CCCC1)Nc1ccccc1 (centres undefined)	-8	.	0	3	-3	-7	i	10
COCCNC(=O)[C@@]1(Cc2ccccc2)C=C[C@@H](C)N1C(C)=O	9	-6	1	4	-21	-4	i	7
O=C(NC1CCN(Cc2ccccc2)CC1)c1cc(S(=O)(=O)N2CCOCC2)ccc1Cl	.	-36	2	0	3	.	.	.
CCOC(=O)N1CCN(C(=O)c2ccc3nc(-c4ccccc4)c(-c4ccccc4)nc3c2)CC1	-26	0	-1	-6	14	.	i	.
Cc1cc(S(=O)(=O)N2CCN=C2c2ccccc2)ccc1F	-5	-4	2	6	-33	7	i	-6
Cc1ccc(NC(=O)COC(=O)CN2C(=O)C3CCCCC3C2=O)cc1S(=O)(=O)N1CCOCC1 (centres undefined)	8	-2	-5	-2	0	0	i	1
O=C(CC(=O)N/N=C/c1c(F)cccc1Cl)NCCc1ccccc1	-12	-11	0	-2	-13	20	i	5
COc1cc2c(cc1OC)CN(S(=O)(=O)c1ccc3c(c1)OCCO3)CC2	-3	-14	3	-1	9	-5	.	2
COc1cccc(-n2cc(CN(C)Cc3nc(Cc4cccc(F)c4)no3)cn2)c1	-6	7	2	0	18	1	i	-8
O=C(Cc1ccsc1)NCC(=O)Nc1ccc(F)c(F)c1	3	-11	-1	2	8	84	i	25	eIF4H inh retest=-5;PABP FP inh retest=13
COc1cccc(-c2csc(N3CCN(CC(=O)Nc4ccc5c(c4)OCO5)CC3)n2)c1	-11	-9	-6	-7	.	6	i	1
O=C(C1CC(=O)N(c2ccccc2)C1)N1CCCCCC1 (centres undefined)	-5	4	0	3	7	0	i	-5
COc1ccc(CCNC(=O)c2cccc(Br)c2)cc1OC	-22	-8	2	-1	-3	-5	i	6
COc1c(Cl)cc(Cl)cc1/C=N/NC(=O)c1nnn(-c2nonc2N)c1CN1CCC(C)CC1	22	-10	1	-5	-4	-8	i	-6
Cc1ccccc1NC(=O)Nc1cnccn1	2	-23	-2	0	25	-1	i	-2
CCCc1nc(C)cc(N2CCN(c3ccccc3)CC2)n1	24	1	4	-3	-3	-6	i	2
Cc1cc(C)c(OC2(c3ccccc3)OC(=O)c3ccccc32)c(C)c1 (centres undefined)	-7	-2	-13	-8	40	1	i	-7
O=C(Cn1cnc2ccccc2c1=O)NCc1cccs1	-7	-10	2	2	-15	-7	.	2
Oc1ccc(Br)cc1/C=N/n1c(-c2ccccc2)n[nH]c1=S	1	-16	5	3	5	-7	i	13
CSc1ccccc1-n1nnnc1SCC(=O)Nc1ccccc1C	.	-6	1	-1	9	2	i	6
COc1ccc(NC(=O)Nc2cccc(C)n2)cc1	-3	-16	-5	-1	-45	-5	i	-13
COc1ccc(-n2c(SCC(N)=O)nnc2-c2ccccc2F)cc1	-16	-12	1	5	-142	-7	.	-8
Cc1ccc(N(CC(O)CN2CCCC2)S(=O)(=O)c2ccc(C)cc2)cc1 (centres undefined)	-4	6	-1	-1	.	-8	i	-2
CCN(CC)c1ccc(/C=C/c2nc3ccccc3s2)cc1	90*	.	.	.	.	?	i	?
FC(F)(F)c1nnc2ccc(N3CCCCC3)nn12	-9	-19	4	-5	-2	.	i	.
O=C(NC1CCCCCC1)C1Cc2ccccc2CN1C(=O)c1ccco1 (centres undefined)	-16	.	-2	4	5	8	i	2
CCC(=O)N1N=C2CC(C)(C)OCC2C1c1ccccc1 (centres undefined)	-10	.	-3	-2	8	-5	i	11
COc1cccc(C(=O)Nc2cccc(OCC(=O)O)c2)c1	-2	-3	2	0	.	-3	i	14
O=C(CSc1nnnn1-c1ccccc1)Nc1ncc(Cc2cc(Cl)ccc2Cl)s1	3	7	3	8	-20	-1	i	2
CN1CCN(c2nc(-c3ccccn3)nc3ccccc23)CC1	-12	-13	-12	-4	8	1	i	16
Cn1cc(C[C@H](NC(=O)OC(C)(C)C)C(=O)N[C@@H](CO)Cc2ccccc2)c2ccccc21	4	-7	-9	-4	-61	.	i	.
Cc1ccc(N(C)S(=O)(=O)c2cccc(C(=O)OCC(=O)N(C)Cc3ccccc3)c2)cc1	.	-10	5	-4	5	.	.	.
Cc1ccc(C(C(=O)NC2CCCCC2)N(Cc2ccco2)C(=O)Cn2cnc3ccccc32)cc1 (centres undefined)	20	-9	-3	-8	.	-6	i	-12
O=[N+]([O-])c1cccc(-c2nnc(-c3ccc4c(c3)OCO4)o2)c1	20	.	5	3	-33	11	i	7
CCN(CC(=O)Nc1c(F)cccc1F)C(=O)c1ccc(-c2ccccc2)cc1	-11	.	-3	-5	.	.	i	.
O=[N+]([O-])c1cc(C(F)(F)F)ccc1NCC1CCCO1 (centres undefined)	-4	1	-4	-4	-23	37	i	-17
COc1ccc(OC)c(NC(=O)COC(=O)c2ccc(OC)c(S(=O)(=O)N3CCCC3)c2)c1	.	1	-3	0	5	.	.	.
Cc1cc(C)nc(N(C#N)CC(=O)Nc2ccccc2)n1	-10	-1	-5	2	.	1	i	11

Brought forward from above: 2 compounds, followed by the next part.
SMILES	CSC inhib	Yeast UUG start	MT1-MMP act inh	MT1-MMP act inh RFP	Env fusion inh	eIF4H inh	Rce1 inh	PABP FP inh	others
COc1ccc(OC)c(NC(=O)COC(=O)c2ccc(OC)c(S(=O)(=O)N3CCCC3)c2)c1	.	1	-3	0	5	.	.	.
Cc1cc(C)nc(N(C#N)CC(=O)Nc2ccccc2)n1	-10	-1	-5	2	.	1	i	11
Cc1ccc(C2=NCCn3nc4cc(C(F)(F)F)ccc4c32)cc1	-6	-6	0	2	5	.	.	.
CC(=O)N1CCN(C(=S)NCc2ccccc2)CC1	-12	.	2	2	3	3	i	?
COC(=O)c1c(NS(=O)(=O)c2ccccc2)csc1C	-10	.	0	0	5	-6	.	2
O=C(c1cccc(N2C(=O)C3CC=CCC3C2=O)c1)N1CCCc2ccccc21 (centres undefined)	-11	-13	1	1	-15	16	i	16
COc1ccc(C2c3ccc4ccccc4c3Oc3ncn(CCN4CCOCC4)c(=N)c32)cc1OC (centres undefined)	.	.	2	-2	22	-9	i	-12
COc1cc(/C=N/NS(=O)(=O)c2ccccc2)c(OC)c(OC)c1	-7	5	-4	-5	18	3	i	3
CCN(c1ccccc1)S(=O)(=O)c1ccc(Cl)c(NC(=O)COC(=O)c2ccc[n+]([O-])c2)c1	-6	.	-1	-3	16	-1	i	13
CCOc1ccc(/C=N/NC(=O)c2cc3c(OC)cc(OC)cc3[nH]2)cc1OC	12	-13	7	0	11	-6	i	-1
O=C(Nc1cccc(F)c1)N1CCC(n2c(=O)[nH]c3ccccc32)CC1	-7	-2	8	-3	22	-2	i	16
CCCCCC(=O)c1c(C)[nH]c(C(=O)OCC)c1C	20	.	-9	-9	.	5	i	11
CN1CCN(C(CNS(=O)(=O)c2ccc(Cl)cc2)c2cccnc2)CC1 (centres undefined)	.	-14	-4	-3	-22	5	i	15
CCOC(=O)c1cccnc1SC(CC)C(=O)N1CCOCC1 (centres undefined)	-10	-15	0	4	-35	3	i	-4
Cc1cc(C(=O)C(=O)N(C)C)c(C)n1-c1ccc(Cl)c(Cl)c1	-8	-10	1	-2	15	-6	i	-10
COC(=O)[C@@]12CCCCN1[C@H](c1ccc(-c3ccc(F)cc3)cc1)[C@H]1C(=O)N(C)C(=O)[C@H]12	.	8	0	-6	-7	.	.	.
CC(NC(=O)CN1CCC(C(N)=O)CC1)c1ccccc1 (centres undefined)	-6	.	-1	4	-59	-9	i	3
Cc1cccc(N2CC(C(=O)Nc3ccc(S(=O)(=O)N4CCCCC4)cc3)CC2=O)c1C (centres undefined)	37	-12	6	-6	6	-1	i	0
Cc1ccc(-n2nnc3c(=O)n(CC(N)=O)cnc32)cc1	-7	-5	-3	4	4	2	i	9
CCN(CC)C(=O)CN(c1cccc(OC)c1)S(=O)(=O)c1ccc(C)cc1	-20	6	-9	-8	-52	5	i	4
O=C(COc1ccc2c(c1)OCO2)Nc1ccccc1C(F)(F)F	1	.	5	6	-33	-5	i	1
C[C@@]12C(=O)N(c3cccc(Cl)c3)C(=O)N1[C@H](c1ccc(Cl)cc1)[C@@H]1C(=O)N(C3CCCCC3)C(=O)[C@@H]12	10	-14	-2	1	103*	.	i	.
COc1ccc(N2C(=O)CC(Sc3n[nH]c(-c4ccc(C)cc4)n3)C2=O)cc1 (centres undefined)	-1	.	1	3	7	38	i	19
CCOc1cc(-c2noc(CCC(=O)Nc3cccnc3)n2)ccc1OC	18	-13	2	-2	35	-2	i	5
CCC(C)(C)NC(=O)/C=C/c1cc(OC)c(OC)c(S(=O)(=O)N2CCc3ccccc32)c1	-16	-14	0	5	-3	6	i	-5
CCn1c(=O)c([N+](=O)[O-])c(Cl)c2ccccc21	?	.	14	4	.	2	i	14
COC(=O)c1ccccc1NC(=O)CSc1nnnn1C1CCCCC1	7	.	7	0	-21	8	i	5
Cc1cc(NC(=O)CSc2nnc(N)s2)c([N+](=O)[O-])cc1C	-2	-9	2	-2	7	-7	i	-13
Cc1nn(-c2ccccn2)c2c1C(c1ccccc1Cl)C1=C(N2)c2ccccc2C1=O (centres undefined)	7	.	-3	-6	8	12	i	-1
CCn1cc(-c2cc(C(F)(F)F)n3nc(C(=O)O)cc3n2)c(C)n1	4	-22	1	3	.	6	i	13
O=C1NC[C@H](Cc2ccccc2)N(CC2CCN(CCc3ccccc3)CC2)C1=O	.	-25	2	5	10	.	.	.
Cc1ccc(NC(=O)CN(C)S(=O)(=O)c2ccc3[nH]c(=O)oc3c2)c(C)c1	-3	-16	-4	-2	1	28	i	21
O=C(Oc1ccc(C(=S)N2CCC(O)CC2)cc1)c1ccc(Cl)cc1	-5	.	1	4	4	-8	i	7
Cc1ccc(S(=O)(=O)Nc2ccc(N3CCCCC3)cc2)cc1	8	-5	-1	-1	6	-11	i	5
COc1ccc2c(Cl)c(C(=O)NN)sc2c1	6	-15	1	3	-92	3	i	-4
